Screens from PubChem.
T cruzi inh: inhibitors of intracellular T. cruzi growth, primary screen, luminescence, NIH3T3 host cells; AID 1885, 2009; T. cruzi beta-gal in NIH3T3, 90 h; actives 1.4% (n = 300,000); inhibition, % (no concentration beside the values);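 active = mean inhibition across valid replicates above about 55%, limit read from the data; inconclusive = mean below that limit but half or more replicates reach it; inactive = mean below it, under half of replicates reach it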;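 also: signal also drops with host cell toxicity which is not excluded here; 0% = plate median of DMSO wells and 100% = zero luminescence signal; higher percent means less beta-gal luminescence so fewer parasites; stock transfer was 50 nL into about 50 µL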
RanGTP-Imp inh: inhibitors of RanGTP-importin-beta interaction, primary screen, biochemical, FRET, CFP-Ran, YFP-importin-beta, homogeneous. actives 1.1% (n = 300,000). inhibition, % (test concentration not listed). cell-free CFP-Ran/YFP-importin-beta FRET ratio;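 active = most replicates above 15%; inconclusive = exactly half above 15%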;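 also: 0% = DMSO wells and 100% = Ran loaded with GDP instead of GTP; wells of about 40 µL received 100 nL stock; the first replicate is given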
Vif A3G: inhibitors of Vif binding to APOBEC3G peptide, primary screen, biochemical, TR-FRET, GST-Vif 1-94, biotin-A3G peptide, dose response retest (AID 1117319) | inhibition, %, or IC50 in µM where a hit was titrated | actives 0.57% (n = 260,000) | TR-FRET GST-Vif / biotin-A3G peptide binding; higher % means a stronger effect; test concentration not given here; strong numbers were not always called active;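 active = above the screen mean plus three standard deviations and confirmed in dose response; inconclusive = results disagree or hit not tested in dose response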;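 also: Vif residues 1-94 fused to GST binding biotinylated APOBEC3G peptide 110-148; 0% = full assay without inhibitor and 100% = GST in place of GST-Vif; retest series ran down from 100 µM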
Ecoli rRNA inh: reduced GFP signal of wild-type E. coli, primary screen, bacterial rRNA inhibitor project, GFP/RFP fluorescence, OD600, single point; E. coli WT GFP vs humanized-ribosome RFP mutants, 24 h; hits give low values; DMSO median 0, no signal -100; GFP signal change (wild-type ribosome), % (test concentration not listed); actives 1.6% (n = 350,000); AID 720706, 2013;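 active = significant combined selectivity score with lowered wild-type GFP, culture density cut under 30%, mutant RFP and density less affected; inactive = any of these conditions unmet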; also: one replicate is shown; some compounds called inactive have numbers as strong as hits
MLL AF4-AF9 inh: inhibitors of AF4 peptide binding to AF9, primary screen, biochemical, AlphaScreen, biotin-AF4 peptide, FLAG-AF9, single point | Protein AF-9 (Homo sapiens), P42568 | inhibition, % at 10 µM | actives 0.47% (n = 350,000) | AID 651704, 2012;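 active = every replicate reaching a set inhibition limit, whatever the replicate mean, cut at about 25% in these data; inconclusive = mean inhibition reaches that limit but some replicates miss it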;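 also: 0% = plate neutral control median and 100% = total signal loss; the record names both 10 and 1 µM as test concentration; the first replicate is given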
Target sequence (P42568 whole entry, looked up): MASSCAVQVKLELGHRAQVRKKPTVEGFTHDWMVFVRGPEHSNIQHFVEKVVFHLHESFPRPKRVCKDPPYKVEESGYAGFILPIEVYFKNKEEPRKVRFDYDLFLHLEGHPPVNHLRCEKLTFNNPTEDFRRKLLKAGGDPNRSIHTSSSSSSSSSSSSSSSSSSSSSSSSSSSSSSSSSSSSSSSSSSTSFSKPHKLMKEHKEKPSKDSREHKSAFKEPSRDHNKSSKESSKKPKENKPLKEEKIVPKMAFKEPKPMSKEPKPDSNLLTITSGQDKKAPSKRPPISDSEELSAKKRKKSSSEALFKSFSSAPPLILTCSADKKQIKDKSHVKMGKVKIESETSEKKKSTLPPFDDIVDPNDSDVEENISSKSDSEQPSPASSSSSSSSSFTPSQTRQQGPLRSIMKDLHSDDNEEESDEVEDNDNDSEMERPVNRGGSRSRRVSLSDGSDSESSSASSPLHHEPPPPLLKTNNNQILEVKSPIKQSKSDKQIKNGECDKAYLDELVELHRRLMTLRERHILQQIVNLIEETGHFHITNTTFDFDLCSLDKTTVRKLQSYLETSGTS
Bfl-1 A1 inh: caspase 3/7 activation in MEF A1-2A-BIM cells, primary screen, A1 inhibitor project, cell-based, luminescence, HTS | AID 2462, 2010 | Caspase-Glo 3/7 luminescence, 3 h; percent of clofoctol response, vehicle zero | actives 0.066% (n = 330,000) | caspase activation, % (test concentration not listed);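 active = over half of replicate activation scores above 10%, or exactly half above 10 with the replicate mean above 10; inconclusive = replicate mean below 10 yet half the replicates above 10; inactive = over half of replicates below 10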;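 also: wells of about 30 µL received 50 nL stock; many hits fall short of the cut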
Calb FLC: C. albicans growth inhibition with fluconazole, primary screen, CaCi-2 strain, Alamar Blue fluorescence | C. albicans CaCi-2 (fluconazole-resistant clinical isolate) + fluconazole, 48 h | growth inhibition, % (test concentration not listed) | actives 0.57% (n = 300,000) | AID 1979, 2009;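 active = most replicates above 75%; inconclusive = exactly half above 75%; inactive = most below 75%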;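 also: all wells also contain fluconazole at 8 µg/ml as a sub-toxic cotreatment; 0% = median of DMSO wells and 100% = median of geldanamycin control wells; wells of about 8 µL received 7.5 nL stock; the first replicate is given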
Beta cell apopt: inhibitors of cytokine-induced beta cell apoptosis, primary screen, luminescence | actives 0.8% (n = 300,000) | protection from apoptosis, % (no concentration beside the values) | AID 435005, 2010 | INS-1E cytokine-induced death, ATP luminescence, 48 h; percent of positive-control rescue, neutral wells zero;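 active = all replicates at 75% or more, or half of them and the mean; inconclusive = half reach 75% but not the mean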;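 also: 0% = cytokine-treated negative control wells and 100% = positive control rescue; higher means more ATP so stronger rescue from cytokine killing; wells of about 40 µL received 100 nL stock; the first replicate is given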
Ecoli rRNA inh OD600: second read-out of Ecoli rRNA inh, no call of its own (marks repeat the call); OD600 change, %; measured here: OD600 growth;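 optical density of the mix in the first replicate; 0 = DMSO median and -100 = no signal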
Ecoli rRNA inh RFP: second read-out of Ecoli rRNA inh, no call of its own (marks repeat the call); RFP signal change, %; measured here: RFP humanized mutant strains;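 first replicate; 0 = DMSO median and -100 = no signal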
* = called active by the depositor; ? = inconclusive; · = no result given; & = joins results of further samples. The list is partial; rates above refer to the full screens.

SMILES | T cruzi inh | RanGTP-Imp inh | Vif A3G | Ecoli rRNA inh | Ecoli rRNA inh OD600 | Ecoli rRNA inh RFP | MLL AF4-AF9 inh | Bfl-1 A1 inh | Calb FLC | Beta cell apopt
COc1ccc(/C=N/Nc2cc(C)nc(N3CCOCC3)n2)c(OC)c1 | -3 | -1.9 | -16% | 22 | 7 | 1.2 | -1.6 | 0.1 | -14 | -5
Fc1ccc(C2CCCN2Cc2nc(Cc3ccccc3F)no2)cc1 (stereo unspecified) | 13 | 1.8 | 11% | -6 | -3 | 3.4 | 1.5 | 0.5 | -12 | -8
CCSC1=C(C#N)C(c2ccc(OC)c(OC)c2)CC(=O)N1 (stereo unspecified) | -8 | -1.8 | -2% | · | · | · | · | -0.6 | 0 | 1
COc1ccc2[nH]c3c(Cl)ncnc3c2c1 | -14 | -3.6 | 11% | -13 | 9 | 11 | 0.1 | -3.4 | -5 | -1
COc1ccc(N=Cc2c(O)c3ccccc3n2C(C)=O)cc1 | 4 | -4.7 | 5% | 10 | 8 | 2.3 | -37 | -4.8 | 2 | 0
CCN(CC)C(=O)CN(c1cc(Cl)ccc1OC)S(=O)(=O)c1ccc(C)c([N+](=O)[O-])c1 | 12 | -0.3 | 3% | · | · | · | · | 0.1 | 11 | ·
N#Cc1ccccc1S(=O)(=O)N1CCN(Cc2c(O)ccc3ccccc23)CC1 | · | · | · | -6 | 4 | -2.9 | -1.8 | 2.1 | · | -8
CC[C@@H](C)[C@@H]1CN([C@@H](C)CN2CCC[C@H]2CN2C(N)=NC[C@H]2CC(C)C)C(=N)N1CCc1ccc(Cl)c(Cl)c1 | · | · | · | -58 | -76 | -30 | 15 | 1.3 | · | -9
CCN(CC)c1ccc(/C=C(/C#N)c2nc3ccc(C)cc3[nH]2)c(OC(C)C)c1 | 84* | -86 | 3% | 12 | 18 | 55 | -15 | 0.5 | -6 | 48
O=C1CC(c2ccccc2)CC(O)=C1C=Nc1ccc(Cl)cc1 (stereo unspecified) | -25 | 3.0 | · | 17 | 13 | -1.6 | -1.4 | 0.9 | -4 | 8
Cc1ccc(NC(=O)COc2ccc3oc4c(c3c2)CCCC4)nc1 | -8 | -0.4 | -9%&-1% | · | · | · | · | 1.3 | 14 | -11
O=[N+]([O-])c1cccc(-c2nc(-c3cccs3)c(-c3cccs3)[nH]2)c1 | 36 | -9.1 | 8% | · | · | · | · | -0.7 | -2 | 44
CC(C)(C)C(=O)NC(=S)Nc1ccc(Cc2ccncc2)cc1 | -14 | 6.7 | · | -1 | 5 | -3.7 | -1.5 | 1.1 | 8 | 2
COC(=O)CNc1nc(Cl)nc(N2CCC(C)CC2)n1 | -12 | 2.3 | 3% | 8 | 2 | -2.2 | 9.5 | -0.5 | 2 | -5
CCC(C)c1ccc(NC(=S)NCCn2cc(Br)cn2)cc1 (stereo unspecified) | 8 | -1.1 | 12% | -54 | -74 | -15 | 2.9 | 0.1 | -2 | 2
Cc1ccc(SCC(=O)NNC(=O)CNC(=O)c2ccc(Br)cc2)cc1 | · | · | 8% | 5 | 18 | 2.2 | 0.9 | 0.2 | · | -5
COC(=O)CNC(=O)C1CCCN1C(=O)CNC(=O)OCc1ccccc1 (stereo unspecified) | -3 | 3.3 | · | -1 | 2 | 3.3 | -0.6 | -0.1 | 2 | -5
COc1ccc(NC(=O)CN2CCN(Cc3ccc4c(c3)OCO4)CC2)cc1OC | 11 | -6.2 | 2% | · | · | · | · | 1.3 | 1 | 1
Cc1nc(-c2cccnc2)sc1C(=O)Nc1ccc(F)cc1F | -5 | -8.0 | 3% | · | · | · | · | 0.4 | 17 | 2
COc1ccc2oc(C(=O)OC(C)C(=O)N3C(C)CCCC3C)c(C)c2c1 (stereo unspecified) | · | · | -8% | -42 | -70 | -8.8 | 2.5 | -0.3 | · | 1
CC(C(=O)NCc1ccccc1)N1C(=O)c2ccccc2C1=O (stereo unspecified) | -5 | 9.2 | -5% | 7 | 7 | -1.6 | -0.6 | -0.3 | 10 | ·
CCn1c(SCC(=O)NCc2ccc3c(c2)OCO3)nnc1-c1cccs1 | -6 | 1.4 | >100µM* | · | · | · | · | -1.2 | -1 | -17
Cn1c(=O)[nH]c(=O)c2c1nc(Br)n2CCSc1nc2ccccc2o1 | -2 | -2.4 | 2% | · | · | · | · | 0.9 | -8 | 2
Cc1nc2ccc(NC(=O)NCCCO)cc2s1 | -17 | 4.8 | -2% | · | · | · | · | -0.1 | -6 | -7
COc1ccc(S(=O)(=O)N(CCc2ccccc2)CC(=O)NC(C)C)cc1 | -8 | -1.8 | >100µM* | · | · | · | · | -1.7 | 7 | 2

Single entries from above.
COc1ccc(N=Cc2c(O)c3ccccc3n2C(C)=O)cc1 in Calb FLC is entered as 2
Cc1nc(-c2cccnc2)sc1C(=O)Nc1ccc(F)cc1F in T cruzi inh is entered as -5
Cn1c(=O)[nH]c(=O)c2c1nc(Br)n2CCSc1nc2ccccc2o1 in T cruzi inh is entered as -2
Cc1nc2ccc(NC(=O)NCCCO)cc2s1 in RanGTP-Imp inh is entered as 4.8
COc1ccc(/C=N/Nc2cc(C)nc(N3CCOCC3)n2)c(OC)c1 in MLL AF4-AF9 inh is entered as -1.6

More compounds follow:
SMILES | T cruzi inh | RanGTP-Imp inh | Vif A3G | Ecoli rRNA inh | Ecoli rRNA inh OD600 | Ecoli rRNA inh RFP | MLL AF4-AF9 inh | Bfl-1 A1 inh | Calb FLC | Beta cell apopt
S=C(Nc1ccccc1)Nc1ccc(Cl)cn1 | 7 | 1.8 | · | · | · | · | · | 0.2 | -52 | 5
Cc1ccsc1/C=C1\Oc2cc(OCC(=O)c3ccccc3)ccc2C1=O | -4 | -25 | · | · | · | · | -9.3 | -2.5 | 14 | -8
COc1ccc(S(=O)(=O)NCc2cccnc2)cc1OC | -5 | 2.0 | · | -1 | 8 | -0.5 | -6.2 | 0.8 | 5 | -7
CCCCNC(=S)Nc1ccc([N+](=O)[O-])cc1 | 13 | -3.2 | -6% | · | · | · | · | -0.6 | -15 | 4
CCc1nnc(NC(=O)CSc2nnc(CNC(=O)c3cc(OC)c(OC)c(OC)c3)o2)s1 | 3 | -0.9 | · | 7 | 11 | 4.3 | -3.8 | -0.3 | -10 | -2
Cn1cc(CN2CCCC(CO)(Cc3ccccc3)C2)c2ccccc21 (stereo unspecified) | 67* | -2.3 | 12% | 0 | -9 | -1.5 | 3.9 | 0.1 | -20 | 4
COc1ccc(NC(=O)CSCC(=O)Nc2ccc(S(=O)(=O)N3CCOCC3)cc2)cc1 | · | · | -10% | · | · | · | 0.1 | 1.1 | · | 0
Cc1cccn2c(CNC3CCCc4ccccc43)c(C(=O)N3CCCCC3)nc12 (stereo unspecified) | 32 | 4.1 | · | -17 | -14 | 12 | 4.0 | 0.0 | -14 | 6
Cc1cc(C)c(-c2c(O)c3c(n(C)c2=O)CC(C)(C)CC3=O)c(C)c1 | 7 | 5.6 | 10% | · | · | · | · | 0.2 | -8 | -1
O=C1NC(c2ccc(Br)cc2)Oc2ccccc21 (stereo unspecified) | -4 | ? | -5% | 7 | 8 | 5.5 | -0.3 | -3.7 | -7 | -11
O=c1c2[nH]c3ccccc3c2ncn1Cc1cccnc1 | -2 | 1.8 | -2% | · | · | · | · | · | 7 | ·
COc1ccc([C@@H]2[C@@H]3C(=O)N(C(C)(C)C)C(=O)[C@@H]3[C@]3(CC(C)C)C(=O)N(c4cccc(F)c4)C(=O)N23)cc1 | 26 | -4.0 | · | 22 | 9 | -4.7 | 2.0 | 0.2 | 20 | -4
CCCCN(C(=O)C1=NN(c2ccccc2)C(=O)CC1)c1c(N)n(CC(C)C)c(=O)[nH]c1=O | · | · | 0% | 3 | 6 | -1.2 | 0.5 | 0.0 | · | 1
COc1cc(NC(=O)CN2C(=O)c3ccccc3S2(=O)=O)c(OC)cc1Cl | -3 | -1.8 | 1% | · | · | · | · | -0.2 | -14 | -3
COc1ccccc1NC(=O)C1C2C=CC3(CN(Cc4cccnc4)C(=O)C13)O2 (stereo unspecified) | -24 | 7.5 | 1% | 1 | 15 | -2.0 | 4.0 | -0.3 | -5 | -6
CCCN(C(=O)c1cc(C)ccc1C)c1c(N)n(Cc2ccccc2)c(=O)[nH]c1=O | · | · | -6% | -2 | -5 | -2.4 | -3.4 | 1.6 | · | -2
O=C(Cc1cccs1)Nc1cccc([N+](=O)[O-])c1 | -43 | 2.6 | 21% | 2 | 6 | -0.8 | -1.1 | -0.1 | -10 | -1
Cc1occc1-c1nnc(SCC(=O)N2CC(=O)Nc3ccccc32)n1CC(C)C | -23 | 8.1 | -5%&3% | · | · | · | · | 0.1 | · | -3
COc1ccc(CNC(=O)CNC(=O)c2c(C)nn(C)c2Cl)cc1 | -12 | 1.7 | -2% | -19 | -22 | -0.3 | -0.8 | -0.4 | -15 | 3
CCCN(CCC)S(=O)(=O)c1ccc(C)cc1 | -1 | -1.8 | · | 9 | 12 | 1.3 | -6.9 | 0.5 | · | 0
O=C1C2C3C=CC(C3)C2C(=O)N1c1nc2ccccc2s1 (stereo unspecified) | -1 | 4.3 | -2% | · | · | · | · | 0.1 | -11 | -2
COc1cccc(C(=O)Nc2ccc(NC(=O)c3ccco3)cn2)c1 | 2 | -2.3 | 19% | · | · | · | · | -8.8 | -6 | 3
COc1ccc(C(=O)Nn2c(CC(C)C)nc3cc(Cl)ccc3c2=O)c(OC)c1 | 20 | 6.6 | 3% | -1 | 5 | -1.3 | 1.3 | -0.8 | 3 | -2
CCOC(=O)c1ccc(-c2ccc(/C=N/NC(=O)CN(c3ccccc3Br)S(C)(=O)=O)o2)cc1 | 9 | 1.3 | · | -6 | -7 | 16 | -50 | -0.5 | 0 | 8
COc1ccccc1NC(=O)COc1ccc(/C=N/NC(=O)CSCc2cc(C)cc(C)c2)cc1 | 9 | 1.0 | 22% | · | · | · | · | 0.4 | 13 | 1

Reformatted tab-delimited: entries from further up.
molecule	T cruzi inh	RanGTP-Imp inh	Vif A3G	Ecoli rRNA inh	Ecoli rRNA inh OD600	Ecoli rRNA inh RFP	MLL AF4-AF9 inh	Bfl-1 A1 inh	Calb FLC	Beta cell apopt
O=c1c2[nH]c3ccccc3c2ncn1Cc1cccnc1	-2	1.8	-2%	·	·	·	·	·	7	·
COc1ccc([C@@H]2[C@@H]3C(=O)N(C(C)(C)C)C(=O)[C@@H]3[C@]3(CC(C)C)C(=O)N(c4cccc(F)c4)C(=O)N23)cc1	26	-4.0	·	22	9	-4.7	2.0	0.2	20	-4
